rRNA inh HTS – inhibitors of bacterial rRNA selective over humanized ribosomes | GFP signal change (wild-type ribosome), % (test concentration not listed) | 350,000 compounds, 1.6% hits | E. coli WT GFP vs humanized-ribosome RFP mutants, fluorescence, 24 h; stronger effect = lower value; DMSO median 0, no signal -100;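 active means significant combined selectivity score with lowered wild-type GFP, culture density cut under 30%, mutant RFP and density less affected; inactive means any of these conditions unmet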; further: one replicate is shown; some compounds called inactive have numbers as strong as hits
Calb FLC – C. albicans growth modulation with fluconazole; C. albicans CaCi-2 (fluconazole-resistant clinical isolate) + fluconazole, Alamar Blue growth, 48 h; growth inhibition, % (concentration not given with the values); 300,000 compounds, 0.57% hits; AID 1979;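 active means most replicates above 75%; inconclusive means exactly half above 75%; inactive means most below 75%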;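 further: all wells also contain fluconazole at 8 µg/ml as a sub-toxic cotreatment; 0% = median of DMSO wells and 100% = median of geldanamycin control wells; wells of about 8 µL received 7.5 nL stock; the first replicate is given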
ALR inh – inhibitors of human sulfhydryl oxidase ALR | P55789 | purified ALR, DTT oxidation, H2O2 HRP-luminol luminescence | inhibition, % (concentration not given with the values) | 290,000 compounds, 3.8% hits;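 active means mean and each replicate at 75% or more; inconclusive means only one of the two met; inactive means neither met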;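 further: stock transfer was 7.5 nL into about 7.5 µL; 0% = neutral wells and 100% = wells with inactivated enzyme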
Target sequence (P55789 whole entry, looked up): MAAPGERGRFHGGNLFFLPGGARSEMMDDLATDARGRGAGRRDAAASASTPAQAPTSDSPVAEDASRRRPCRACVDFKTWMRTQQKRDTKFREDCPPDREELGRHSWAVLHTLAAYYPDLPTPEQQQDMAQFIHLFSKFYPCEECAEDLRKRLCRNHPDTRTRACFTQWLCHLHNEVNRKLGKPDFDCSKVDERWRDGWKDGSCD
T cruzi repl – blocks replication of Trypanosoma cruzi. T. cruzi beta-gal in NIH3T3, luminescence, 90 h. inhibition, % (test concentration not listed). 300,000 compounds, 1.4% hits. AID 1885;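 active means mean inhibition across valid replicates above about 55%, limit read from the data; inconclusive means mean below that limit but half or more replicates reach it; inactive means mean below it, under half of replicates reach it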;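 further: signal also drops with host cell toxicity which is not excluded here; 0% = plate median of DMSO wells and 100% = zero luminescence signal; higher percent means less beta-gal luminescence so fewer parasites; stock transfer was 50 nL into about 50 µL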
AF4-AF9 inh – blocks AF4 peptide binding to human AF9 | inhibition, % at 10 µM | AlphaScreen, biotin-AF4 peptide binding to FLAG-AF9 | 350,000 compounds, 0.47% hits | P42568;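 active means every replicate reaching a set inhibition limit, whatever the replicate mean, cut at about 25% in these data; inconclusive means mean inhibition reaches that limit but some replicates miss it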;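 further: 0% = plate neutral control median and 100% = total signal loss; the record names both 10 and 1 µM as test concentration; the first replicate is given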
Target sequence (P42568 whole entry, looked up): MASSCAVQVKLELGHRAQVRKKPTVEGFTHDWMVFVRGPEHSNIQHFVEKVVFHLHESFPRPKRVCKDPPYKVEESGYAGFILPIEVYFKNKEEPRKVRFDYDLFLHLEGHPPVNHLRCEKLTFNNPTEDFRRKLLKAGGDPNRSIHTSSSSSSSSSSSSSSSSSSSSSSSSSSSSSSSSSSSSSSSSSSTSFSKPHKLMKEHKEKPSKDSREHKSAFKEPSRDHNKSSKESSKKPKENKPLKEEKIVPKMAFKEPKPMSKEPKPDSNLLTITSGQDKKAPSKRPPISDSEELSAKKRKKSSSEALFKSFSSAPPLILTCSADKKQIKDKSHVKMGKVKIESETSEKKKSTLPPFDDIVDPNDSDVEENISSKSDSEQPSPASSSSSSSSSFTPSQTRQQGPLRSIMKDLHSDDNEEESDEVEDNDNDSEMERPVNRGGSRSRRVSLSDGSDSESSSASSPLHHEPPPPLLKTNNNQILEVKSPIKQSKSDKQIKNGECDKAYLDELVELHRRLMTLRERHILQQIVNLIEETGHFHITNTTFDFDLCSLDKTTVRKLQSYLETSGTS
FGF22 binding – shifts melting point of recombinant human FGF22 | 340,000 compounds, 1.5% hits | Q9HCT0 | recombinant FGF22 thermal shift, SYPRO orange fluorescence; percent of sucrose octasulfate shift, DMSO zero | calls only at 9.99 µM | AID 651658;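 active means melting point raised past a set limit in the mean and every replicate; inconclusive means no clear call; three in four hits are not shown here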
Target sequence (Q9HCT0 whole entry, looked up): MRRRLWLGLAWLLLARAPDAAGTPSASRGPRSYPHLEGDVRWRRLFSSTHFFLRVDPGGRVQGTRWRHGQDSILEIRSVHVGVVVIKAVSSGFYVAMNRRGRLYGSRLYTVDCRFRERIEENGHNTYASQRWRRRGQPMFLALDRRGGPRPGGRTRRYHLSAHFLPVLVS
Beta cell apopt – blocks beta cell apoptosis; protection from apoptosis, % (no concentration beside the values); AID 435005; 300,000 compounds, 0.8% hits; INS-1E cytokine-induced death, ATP luminescence, 48 h; percent of positive-control rescue, neutral wells zero;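 active means all replicates at 75% or more, or half of them and the mean; inconclusive means half reach 75% but not the mean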;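 further: 0% = cytokine-treated negative control wells and 100% = positive control rescue; higher means more ATP so stronger rescue from cytokine killing; wells of about 40 µL received 100 nL stock; the first replicate is given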
RanGTP-Imp inh – disruptors of Ran-importin-beta complex formation – biochemical, FRET, CFP-Ran, YFP-importin-beta, homogeneous, primary screen | cell-free CFP-Ran/YFP-importin-beta FRET ratio | inhibition, % (concentration not given with the values) | 300,000 compounds, 1.1% hits | AID 2216;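 active means most replicates above 15%; inconclusive means exactly half above 15%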;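 further: 0% = DMSO wells and 100% = Ran loaded with GDP instead of GTP; wells of about 40 µL received 100 nL stock; the first replicate is given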
rRNA inh HTS OD600 – further read-out of rRNA inh HTS, marked with its call; OD600 change, %; measured here: OD600 growth;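 optical density of the mix in the first replicate; 0 = DMSO median and -100 = no signal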
rRNA inh HTS RFP – second read-out of rRNA inh HTS, no call of its own (marks repeat the call); RFP signal change, %; measured here: RFP humanized mutant strains;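 first replicate; 0 = DMSO median and -100 = no signal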
Starred values were filed as active, the others as inactive; i = inactive; ? = inconclusive; nt = no result given; + = active, no number; & = joins results of further samples.

Below each SMILES – rRNA inh HTS | rRNA inh HTS OD600 | rRNA inh HTS RFP | Calb FLC | ALR inh | T cruzi repl | AF4-AF9 inh | FGF22 binding | Beta cell apopt | RanGTP-Imp inh
COc1ccccc1NS(=O)(=O)c1cccc(C(=O)NCC(c2ccco2)N2CCCC2)c1 (stereo not given)
 : nt | nt | nt | nt | 0.9 | nt | 0.6 | i | -5.5 | nt
O=C(NCc1nnc2c(C(F)(F)F)cc(Cl)cn12)c1ccco1
 : 3.9 | 2.4 | -0.3 | -5.6 | 2.1 | -9.8 | -1.0 | i | -6.3 | 4.9
COc1cc(C(=O)NC2CCN(Cc3ccccc3)CC2)cc(Cl)c1OC(C)C
 : 3.0 | 0.6 | -1.2 | -6.0 | -3.3 | 36.0 | 0.8 | i | 9.4 | 1.1
CCN(CC)CCNS(=O)(=O)c1ccc(C(=O)NN)cc1
 : 12.4 | 13.1 | -3.4 | -3.6 | 98.1* | -13.3 | -2.5 | i | -5.9 | -1.3
CCN1CCc2c(OCC(=O)Nc3ccccc3)cccc2C1=O
 : 10.6 | 13.7 | 2.1 | 2.9 | 0.6 | -5.7 | 1.9 | i | 6.5 | -0.2
Cn1cc(/C=C2\SC(=O)NC2=S)c2ccccc21
 : -0.9 | -16.8 | 1.4 | ? | nt | 22.4 | -1.1 | i | 14.7 | -15.9
CCOC(=O)CNC(=O)CSc1nc(-c2ccccc2)ns1
 : -7.8 | -7.9 | -0.4 | -4.2 | 4.3 | -6.2 | -2.8 | i | -3.6 | 1.5
CC(C)NC(=O)CCNS(=O)(=O)c1ccc(Br)cc1
 : nt | nt | nt | -5.3 | -4.1 | -10.5 | nt | nt | -2.0 | 3.3
Cc1ccc(NC(=O)COC(=O)CCCC2=NS(=O)(=O)c3ccccc3N2)cc1C
 : 1.0 | -10.3 | 4.1 | 12.9 | 1.8 | -0.5 | -1.2 | i | -3.6 | -0.4
CCOC(=O)N1CCN(c2ccc(C(=O)CC)cc2F)CC1
 : nt | nt | nt | -3.8 | -2.4 | -5.2 | nt | nt | -1.8 | -2.5
COCC(C)NC(=S)Nc1ccccc1[N+](=O)[O-] (stereo not given)
 : 9.8 | -2.0 | -2.2 | 28.9 | nt | -6.8 | 4.1 | i | -14.1 | 5.9
CCOC(=O)N1CCN(C(=O)Nc2ccc3nc(C)sc3c2)CC1
 : nt | nt | nt | 18.4 | -23.5 | 4.2 | nt | nt | -7.1 | 1.2
CNC(=O)CSCc1c(F)cccc1Cl
 : nt | nt | nt | 11.3 | -24.1 | -3.5 | nt | nt | -2.5 | -2.7
Cc1ccc(S(=O)(=O)Nc2c(O)c3ccccc3oc2=O)cc1C
 : -10.6 | -17.1 | -1.8 | -4.3 | nt | 1.4 | -2.5 | i | -6.8 | 0.6
COc1cccc(NC(=O)CN(C)C(=O)CCNC(=O)c2ccc(Br)cc2)c1
 : -10.8 | -17.0 | -0.8 | -5.2 | -9.6 | -11.0 | 5.8 | i | 5.6 | 4.7
CCOc1ccccc1C(=O)N[C@H](C(=O)Nc1cc(S(=O)(=O)N(C)C)ccc1OC)C(C)C
 : 11.6 | 3.5 | -1.1 | 1.9 | -3.0 | 6.7 | 3.9 | i | -11.8 | ?
Cc1ccc(S(=O)(=O)Nc2ccccc2C(=O)N2CCCCCC2)cc1
 : -15.1 | -23.6 | -3.8 | -1.3 | 11.8 | -9.0 | 2.7 | i | -2.3 | 2.2
Cc1csc(NC(=O)CCCC(=O)O)c1-c1nc2ccccc2s1
 : nt | nt | nt | 66.8 | 7.2 | 2.1 | 0.6 | i | -3.7 | -2.1
Cc1cccc(OCc2nnc(SCC(=O)N3CCCC3)o2)c1
 : 5.3 | 12.1 | 4.3 | -12.9 | 3.8 | -15.4 | -1.3 | i | -2.2 | 6.8
CCc1c(O)nc(SCC(=O)Nc2nc3ccccc3s2)n(C2CCCCC2)c1=O
 : -16.6* | -3.5* | 6.3* | -3.1 | 92.2* | -20.2 | -1.7 | i | nt | 0.0
COc1ccc(NC(=O)COC(=O)c2ccccc2SCC(=O)N2CCCC2)cc1
 : -3.1 | -0.5 | -0.6 | -6.4 | -4.8 | 1.8 | -0.8 | i | -1.0 | 0.6
N#CC1(NC(=O)COc2cccnc2[N+](=O)[O-])CCCCC1
 : -2.1 | 14.0 | 0.0 | nt | -2.7 | nt | 0.7 | i | -5.8 | nt
CC(C)CCN(Cc1ccco1)S(=O)(=O)c1ccc(-c2ccc(=O)[nH]n2)s1
 : 0.8 | -13.4 | 1.6 | 6.5 | 2.4 | 2.7 | 1.3 | i | 4.5 | -1.7
COC(=O)[C@H]1[C@H]2C[C@@H]3c4[nH]c5cc(OC)ccc5c4CCN3C[C@H]2C[C@@H](OC(=O)c2cc(OC)c(OC)c(OC)c2)[C@@H]1OC
 : nt | nt | nt | nt | -18.5 | nt | 22.1 | i | 3.3 | nt
CCN1CCN(Cc2nnc(-c3ccc(C)cc3)o2)CC1
 : 11.0 | 18.4 | -0.4 | -15.3 | nt | 2.1 | 0.4 | i | -3.7 | 7.4
O=C(NC(=O)c1ccccc1O)c1ccc2c(c1)CCO2
 : -5.2 | -6.8 | 13.6 | 0.0 | 43.6 | -25.2 | 0.6 | i | -2.1 | -0.4
CCOC(=O)C1CCCN(S(=O)(=O)NC[C@H]2O[C@@H](n3cnc4c(N)ncnc43)[C@H](O)[C@@H]2O)C1 (stereo not given in full)
 : 12.5 | 8.5 | -0.4 | nt | 2.0 | nt | -2.0 | i | -9.9 | nt
CC(n1cnnn1)C12CC3CC(CC(C3)C1)C2 (stereo not given)
 : nt | nt | nt | 7.7 | 25.5 | -16.8 | nt | nt | 4.1 | -2.2
O=C(c1cc(Cl)nc2ccccc12)N1CCN(S(=O)(=O)c2cccc(F)c2)CC1
 : 7.0 | 0.8 | 1.3 | 10.3 | -1.7 | 9.2 | 0.5 | i | -3.7 | nt
Cc1ccc(C(=O)N2N=C(CC(C)C)CC2(O)C(F)(F)F)o1 (stereo not given)
 : 18.5 | 21.6 | 2.6 | 6.7 | -1.0 | -2.2 | -0.5 | i | 1.3 | -3.5
Cc1cccc(/N=C/c2c(O)c3ccccc3oc2=O)n1
 : nt | nt | nt | -4.6 | 6.8 | -16.2 | nt | nt | -22.7 | -1.0
C=CC[C@H](CC(=O)NCCO)C(=O)N[C@H](COC(=O)[C@@H](CC=C)Cc1ccc(F)cc1)Cc1ccccc1
 : -10.9 | 0.2 | 0.3 | nt | 54.2 | nt | nt | i | -8.0 | nt
Cc1c(O)ccc(C(=O)CN2CCN(Cc3ccccc3)CC2)c1O
 : 1.0 | -7.6 | 1.0 | -4.0 | 2.9 | 24.0 | 1.5 | i | -7.7 | 6.1
c1ccc(COc2ccc(OCCn3cncn3)cc2)cc1
 : nt | nt | nt | -7.2 | -7.3 | -17.3 | nt | nt | -1.8 | 0.7
CCCc1nn(C)c2c(=O)[nH]c(-c3cc(S(=O)(=O)N4CCN(C)CC4)ccc3OCC)nc12
 : -5.0 | 1.5 | 0.6 | nt | 3.6 | -9.5 | -1.5 | i | -0.7 | 3.1
CCOc1ccc(CNC(=O)Cn2nc(C)n3nc(-c4ccccc4)cc3c2=O)cc1
 : 4.8 | 9.2 | -4.1 | 33.0 | -8.4 | -8.6 | -6.6 | i | -4.4 | 0.7
COc1ccc(S(=O)(=O)N(C)C[C@H]2Oc3ccc(NC(=O)Cn4cnnn4)cc3C(=O)N([C@H](C)CO)C[C@@H]2C)cc1
 : 0.9&11.9 | 2.1&8.1 | -2.3&4.5 | nt | nt | nt | -17.1&0.6 | i | -14.1 | nt
CCC1=C([N+](=O)[O-])C(c2ccc3c(c2)OCO3)NC(=O)N1 (stereo not given)
 : 1.0 | -0.2 | -1.4 | 2.7 | -1.9 | -16.6 | 2.4 | i | -4.8 | 7.8
CC1=CC(c2ccc(Cl)cc2)n2nc(NC(=O)c3ccccc3)nc2N1 (stereo not given)
 : nt | nt | nt | 2.9 | 6.3 | 0.3 | nt | nt | -3.9 | -2.7
O=C(N/N=C/c1ccc(F)cc1)c1ccncc1
 : 9.0 | 19.5 | 2.0 | 6.4 | nt | -14.2 | -0.1 | i | -9.4 | -2.4
Cc1nnc(SCC(=O)NCc2ccco2)[nH]c1=O
 : nt | nt | nt | 3.5 | -1.7 | -25.6 | nt | nt | nt | 3.5
CCOc1ccc(NC(=O)C(C)N2C(=O)c3ccccc3C2=O)cc1 (stereo not given)
 : -1.9 | -3.3 | -0.8 | 0.7 | -2.9 | 1.6 | -3.7 | i | -3.2 | 5.3
O=C(Cn1nnc(-c2ccccc2F)n1)Nc1ccc2c(c1)OCO2
 : 3.8 | 3.4 | 3.2 | -6.4 | -3.5 | -1.4 | -29.2 | i | 5.2 | 3.3
COc1ccc(OCC(=O)NC2CCCc3ccccc32)cc1 (stereo not given)
 : -2.0 | -13.1 | -2.5 | -5.6 | 3.1 | 4.0 | 6.3 | i | 0.2 | 4.9
CCC(c1nnc(SCC(=O)NCC2CCCO2)n1Cc1ccccc1)N(C)C (stereo not given)
 : nt | nt | nt | nt | -9.1 | -25.9 | nt | nt | -6.2 | 0.7
COc1cc(NC(=O)c2ccc3c(c2)OCCO3)ccc1NC(=O)c1cccs1
 : -6.2 | -5.8 | 1.8 | 43.9 | 47.8 | 5.2 | 1.0 | + | -1.9 | 3.7
NC(=O)NCc1ccccc1F
 : 17.1 | 12.7 | -1.5 | 7.4 | -4.3 | 3.0 | -1.5 | i | -19.4 | -0.2
COC(=O)c1sccc1OCc1cccc(OC)c1
 : -10.6 | -12.9 | -0.2 | 21.4 | -13.7 | -7.4 | -2.2 | i | 0.2 | 1.4
CCn1c(SCC(=O)Nc2cccc(C)n2)nc2c1c(=O)n(C)c(=O)n2C
 : -13.9 | -8.2 | 2.2 | -5.9 | -2.1 | -3.1 | -2.7 | i | -1.2 | 0.7
C[C@H](NCc1c[nH]c2ccccc12)c1ccccc1
 : 3.9 | -1.0 | 1.5 | 40.3 | nt | 19.7 | 0.6 | i | 3.2 | -1.1
CCCc1ccc2oc(C(=O)N3CCCC3)c(C)c2c1
 : -24.1 | -27.1 | -2.9 | 2.8 | 4.3 | -1.2 | -4.0 | i | nt | -1.5
Cc1ccc(-n2nnnc2SCC(=O)c2c(N)n(C3CC3)c(=O)[nH]c2=O)cc1
 : 7.0 | 9.3 | -1.2 | nt | -3.3 | nt | -0.9 | i | -7.0 | nt
O=C(Cc1ccc([N+](=O)[O-])cc1)Nc1nnc(C2CC2)s1
 : nt | nt | nt | 0.4 | 0.6 | 12.1 | nt | nt | -8.4 | -0.9
CC1=CC(c2ccccc2)n2nc(NC(=O)CCCC(=O)O)nc2N1 (stereo not given)
 : 5.3 | 11.0 | 0.4 | 3.2 | 3.1 | 0.5 | 0.1 | i | nt | 2.8
Nc1c(C(=O)O)sc2nc(-c3ccccc3)cc(-c3ccc(F)cc3)c12
 : 5.8 | 0.7 | 15.6 | 1.5 | 23.0 | 0.8 | -9.2 | i | 1.5 | -27.8

Some of the compounds tested. The share of hits here may be higher or lower than overall.
